HPGD block: blocks human HPGD enzyme activity | P15428 | purified HPGD, NADH fluorescence kinetic, PGE2 substrate | Potency, µM, for inactives: at the top dose activity change, negative = inhibition, most hits filed as inhibitors | 150,000 tested, 4.3% active; active = well fitted inhibition curve with a large enough effect (not every such curve was filed as active); inconclusive = small, poorly fitted or top-dose-only effect, or another doubt; inactive = no such curve, though single readings can be large or run the other way;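 further: top concentration of the series not given in the record; plate controls included wells without enzyme; inactives centre near -10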
Target sequence (P15428 whole entry, looked up): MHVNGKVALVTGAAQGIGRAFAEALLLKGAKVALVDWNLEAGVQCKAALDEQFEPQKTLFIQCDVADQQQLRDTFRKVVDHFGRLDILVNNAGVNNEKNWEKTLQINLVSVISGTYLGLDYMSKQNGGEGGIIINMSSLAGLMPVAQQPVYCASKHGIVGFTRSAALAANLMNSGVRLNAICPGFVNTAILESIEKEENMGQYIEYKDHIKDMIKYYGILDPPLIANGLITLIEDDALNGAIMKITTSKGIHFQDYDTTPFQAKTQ
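20 nM HPGD preincubated 15 min at room temperature with compound in 50 mM Tris-HCl pH 8, 0.01% Tween 20. Started with 1 mM NAD+ and 30 uM prostaglandin E2; NADH fluorescence (360/450 nm) read 5 times over 30-s intervals, last minus first.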
* marks the source's active call; other numbers are inactive results; u = inconclusive. On the % scale 0 is the no-effect control and ±100 the full control effect; potency means the concentration at half of the fitted maximal effect. Not all compounds are listed. The share of hits here may be higher or lower than overall.

No. | Molecule | HPGD block
1 | COCCNC(=O)C1(C)C=CCN1C(C)=O (configuration not stated) | -20%
2 | CC12CCC(C(N)=O)(c3nc4ccccc4nc31)C2(C)C (configuration not stated) | -13%
3 | O=C(O)CCCNS(=O)(=O)c1cccc2nsnc12 | -1%
4 | CCOC(=O)C1CCN(C(=O)CNC(=O)OC(C)(C)C)CC1 | 1%
5 | O=C(CCc1ccccc1)NC(NC(=S)Nc1ccc(Br)cc1)C(Cl)(Cl)Cl (configuration not stated) | -12%
6 | O=C(N/N=C/c1cccc([N+](=O)[O-])c1)C1CC(=O)N(c2ccc(Cl)cc2)C1 (configuration not stated) | -13%
7 | CCCN(CC1CC1)C(=O)Nc1ccccc1C | -1%
8 | CCCOC(=O)/C(C(N)=NCc1ccccc1)=C(\O)OCCC | -10%
9 | CCn1c(=O)cc(OCC(=O)NC(C)c2ccc3c(c2)OCCO3)c2ccccc21 (configuration not stated) | -15%
10 | CC(C)C(C)/C=C/C(C)C1CCC2C3=CC=C4CC(O)CCC4(C)C3CCC21C (configuration not stated) | -11%
11 | COC(=O)COc1cccc(NS(=O)(=O)c2ccc(NC(C)=O)cc2)c1 | 0%
12 | S=C(Nc1ccc(Cl)cc1Cl)Nn1cnnc1 | 7.9µM*
13 | Cc1ccc(C(=O)NC(NCc2ccco2)C(Cl)(Cl)Cl)cc1 (configuration not stated) | -13%
14 | Cc1cc(C2=CC(C)(c3cc(C)oc3C)Nc3nc(C(F)(F)F)nn32)c(C)o1 (configuration not stated) | u
15 | COc1cc(C2c3c(oc4ccc(C)cc4c3=O)C(=O)N2c2cc(C)ccn2)cc(OC)c1OC (configuration not stated) | -5%
16 | C#CCOCCOCCOCCNc1nc(N2CCN(C(=O)[C@H]([C@@H](C)O)n3cc(CCCCN)nn3)CC2)nc(N2CCN(C(=O)[C@H](C)n3cc(CCCN=C(N)N)nn3)CC2)n1 | -7%
17 | CNS(=O)(=O)c1cccc(C(=O)OCC(=O)N2c3ccccc3CC2C)c1 (configuration not stated) | -12%
18 | Cc1ccc(CS(=O)(=O)CCC(=O)NCCN2CCCC2)cc1 | -15%
19 | COC(=O)c1cc2occc2n1CC(=O)N(C)C1CCCCC1 | -16%
20 | CSc1nc2ccc(NC(=O)C3CC(=O)N(Cc4ccccc4)C3)cc2s1 (configuration not stated) | 3%
21 | CC(=O)N1CC[n+]2c(-c3ccc(Cl)cc3)csc21 | 18µM*
22 | Cn1c(=O)c2[nH]c(CCCc3ccc([N+](=O)[O-])cc3)nc2n(C)c1=O | -10%
23 | O=C(Nc1ccc(Br)cc1)c1ccc(CSC2=NCCS2)cc1 | -12%
24 | COc1ccc(OCCSc2nnc3c(Cl)cc(Cl)cn23)cc1 | -19%
25 | O=C(CSc1ccc(Cl)cc1)N1CCC(c2nc3ccccc3s2)CC1 | -5%
26 | NC(=S)Cc1nc2n(n1)Cc1ccccc1-2 | -15%
27 | CCN1C(=O)/C(=C\C=C2/C=CC=CN2CC)SC1=S | -4%
28 | O=C(Nc1ccc2c(c1)OCO2)C1CCCN1C(=O)Nc1ccccc1F (configuration not stated) | -11%
29 | CC(OC(=O)Cn1c(C(F)(F)F)nc2ccccc21)C(N)=O (configuration not stated) | -14%
30 | O=C(Nc1cccc2ccccc12)/C(Cl)=C/c1ccccc1 | -9%
31 | CCC(C)n1cnc2c(c1=O)c1nc3ccccc3nc1n2-c1ccc2c(c1)OCCO2 (configuration not stated) | -15%
32 | Cc1ccc(OCc2nnc(NC(=O)OCC(C)C)s2)c(C)c1 | -12%
33 | CCOC(=O)C1=C(C)NC(=O)NC1c1ccc(N(CC)CC)cc1 (configuration not stated) | -1%
34 | Cc1nc2nc3c(cn2n1)C(=O)CCC3 | -11%
35 | CCSc1cc(C)nc2c(-c3ccccc3)c(C)nn12 | u
36 | O=C(NCc1cccs1)Nc1ccc2c(c1)OCO2 | -14%
37 | CCOC(=O)c1cc2ccc(OC)c(OC)c2c(=O)s1 | -19%
38 | CC(C)c1nc(N(C)S(C)(=O)=O)nc(-c2ccc(F)cc2)c1/C=C/C(O)CC(O)CC(=O)O (configuration not stated) | -5%
39 | Cc1ccc(-n2c(SCC(=O)N3c4ccccc4Sc4ccccc43)nnc2-c2ccncc2)cc1 | -19%
40 | COC(=O)C1=C(C(=O)OC)[C@@H]2Nc3ccccc3[C@@]23C[C@@H](C(=O)OC)N(C(=O)c2ccco2)C3=N1 | -15%
41 | O=C(COc1ccc(Cl)cc1)NCc1nnc(SCC(=O)c2ccccc2)o1 | -14%
42 | CCC1(CC)NC(=O)N(CC(=O)OCn2nnc3ccccc3c2=O)C1=O | -22%
43 | C[C@@H]1CCC2C(C)(C)C3CC21CC[C@@]3(C)O (some centres not stated) | -8%
44 | FC(F)(F)c1cccc(Nc2ncnc3ccccc23)c1 | -5%
45 | CCCCCCNCCn1cnc2c(N)ncnc21 | -3%
46 | COc1cccc(Cn2c(=O)c(-c3cccc(C#N)c3)nc3cnc(Nc4ccccc4)nc32)c1 | -14%
47 | Cc1ccc(-c2ccc(C(=O)Nc3cccc(F)c3)o2)c2ccccc12 | u
48 | CCCCCC(=O)N1CCN(c2ccc(C(C)=O)cc2F)CC1 | -7%
49 | Cc1ccccc1NC1=CC(=O)CC(C)(C)C1 | -26%
50 | COCCNc1oc(-c2ccc(Cl)cc2)nc1C#N | u
51 | CCOc1ccc2nc(NC(=O)CSc3nc4ccccc4c(=O)n3Cc3ccco3)sc2c1 | -12%
52 | O=S(=O)(Nc1ccc(N=Nc2ccc(O)c3ccccc23)cc1)c1ccccc1 | 32µM*
53 | CCOC(=O)c1ccc(S(=O)(=O)N2CCN(C(=O)CSc3nc4ccccc4o3)CC2)cc1 | -11%
54 | COCCn1c(=O)c(-c2ccc(Cl)cc2)nc2cncnc21 | u
55 | O=C(NC(=S)Nc1ccc(S(=O)(=O)N2CCCCC2)cc1)c1ccc(Cl)cc1 | u
56 | COCC(C)n1c(C)cc(C(=O)CN2C(=O)NC(Cc3c[nH]c4ccccc34)C2=O)c1C (configuration not stated) | 6%
57 | CC(C)(C)NC(=O)c1ccc2nccnc2c1 | -12%
58 | Cc1ccc(C)c(NC(=O)COC(=O)CCCN=C2NS(=O)(=O)c3ccccc32)c1 | -1%
59 | Cc1onc(-c2ccccc2)c1-c1ccc(S(N)(=O)=O)cc1 | -11%
60 | CCN(CC)c1nc(OCCNC(=O)Nc2ccccc2)nc(N(CC)CC)n1 | -25%

Next part
No. | Molecule | HPGD block
61 | COc1cc(/C=N/c2oc(-c3ccccc3)cc2C#N)ccc1O | u
62 | CCCCC1=CC2=CC(=O)C(C)(OC(=O)CC)C(=O)C2=CO1 (configuration not stated) | -4%
63 | COc1ccc(Cl)cc1Nc1nc(-c2sc(NC(=O)c3ccccc3)nc2C)cs1 | u
64 | CC(C)(C)c1ccc(OCc2nc(-c3ccccn3)no2)c(Br)c1 | -25%
65 | CCCn1c(C)nc2c(c1=O)c1nc3ccccc3nc1n2CCC1=CCCCC1 | u
66 | COC(=O)C(NC(=O)c1ccccc1)(Nc1nccs1)C(F)(F)F (configuration not stated) | -13%
67 | CC(C)(C)c1ccc(O)c(CN(Cc2c(O)ccc3ccccc23)C2CCCCC2)c1 | -15%
68 | CNC(=S)N/N=C1\C(=O)c2cccc3cccc1c23 | -16%
69 | O=C(COC(=O)c1ccc(S(=O)(=O)NCc2ccco2)cc1)NC1CCCCCC1 | -7%
70 | OC(COCC1COc2ccccc2O1)CN1CCN(c2ccccc2F)CC1 (configuration not stated) | -4%
71 | COC(=O)C1(S(=O)(=O)c2cccc3nsnc23)CC1 | -13%
72 | O=C1Nc2ccc(Br)cc2C1(O)Cc1ccncc1 (configuration not stated) | -3%
73 | COc1ccc(CN(C)C2CCCCC2)c(C)c1C | -4%
74 | Cc1cc(C(=O)Nc2sc3c(c2C#N)CCC3)no1 | -10%
75 | c1cnc(SCCOc2cccc3ccccc23)nc1 | u
76 | S=C(N/N=C/c1ccccc1Cl)Nc1ccccc1 | -9%
77 | Cc1ccc(C(=O)N/N=C\c2ccc(Br)o2)o1 | -19%
78 | Cc1coc2cc3oc(=O)c4c(c3cc12)CCCC4 | u
79 | Cc1ccc2c(c1)-c1c(ssc1=S)C(C)(C)N2C(=O)CSC1=NCCS1 | -10%
80 | CC(C)CNC(=O)CN(C1CCCCC1)S(=O)(=O)c1ccccc1 | -20%
81 | COc1ccc(CCC2(C)NC(=O)NC2=O)cc1 (configuration not stated) | -5%
82 | CCCNc1cc(C)oc(=O)c1C(=O)CCC | -19%
83 | O=C(O)CCc1nn2c3ccccc3nc2n(CCN2CCCCC2)c1=O | u
84 | COc1ccc(CN2CCC(=O)NC2=O)cc1 | -3%
85 | O=c1oc2c3c4c(cc2s1)CCCN4CCC3 | 22µM*
86 | CCCCNC(=O)C1CCN(S(=O)(=O)c2c(C)noc2/C=C\c2ccc(OC)cc2)CC1 | 27%
87 | COc1ccc(Br)cc1CNc1ccc(O)cc1 | -18%
88 | O=C(NC1CCCC1)c1cc(Cl)ccc1[N+](=O)[O-] | -13%
89 | CCOC(=O)N1CCN(C(=O)Cn2ccc3ccccc3c2=O)CC1 | -11%
90 | CSc1cccc(NC(=O)C2CCN(S(=O)(=O)c3ccc(F)cc3)CC2)c1 | -13%
91 | O=C(O)c1nc(N2CCCC2)ncc1Cl | -7%
92 | Cn1c(=O)[nH]c(=O)c2c1nc(CN1CCN(c3cccc(Cl)c3)CC1)n2CCc1ccccc1 | -1%
93 | Cc1cc(C)n2nc(C(=O)Nc3nnc(C4CC4)s3)nc2n1 | -7%
94 | O=C(CCCn1c(=O)c2ccccc2n(Cc2ccccc2)c1=O)NCc1ccco1 | u
95 | Cn1c(NC(=O)c2cc(Br)ccc2Cl)cc(=O)n(C)c1=O | -22%
96 | CC(C)(C)Nc1nc(Oc2ccc(=O)n(-c3ccccc3)n2)nc(N2CCOCC2)n1 | -5%
97 | C/C(Nc1ccc(Cl)cc1)=C(/C#N)C(N)=O | -1%
98 | CC(C)c1ccc(NC(=S)NC2CCN(Cc3ccccc3)CC2)cc1 | -3%
99 | S=c1[nH]nc(CCc2ccccc2)n1Cc1ccccc1 | -28%
100 | O=C(Nc1ccccc1)N1CC2(CCN(C(=O)c3ccco3)CC2)C1 | -9%
101 | O=C(NC(=S)Nc1ccc(S(=O)(=O)N2CCCCC2)cc1)c1ccccc1 | -16%
102 | CCOC(=O)c1cccc(-c2ccc(C=O)o2)c1 | u
103 | O=C(NCC1CCCO1)C1CCN(S(=O)(=O)c2cccc3cccnc23)CC1 (configuration not stated) | -12%
104 | Cc1ccc(Oc2cc([N+](=O)[O-])cc3c2C(=O)Nc2ccccc2O3)cc1 | -6%
105 | O=C(O)c1n[nH]c2ccccc12 | -6%
106 | COc1ccc(/C=C(/C#N)C(=O)Nc2ccc(C)cc2C)cc1C(=O)O | -17%
107 | CCc1c(C)nc2cc(-c3ccc(OC)c(OC)c3)nn2c1NCC1CC1 | u
108 | COC(=O)c1ccc2c(=O)n(CCCN3CCOCC3)c(=S)[nH]c2c1 | -10%
109 | Cc1ccc(S(=O)(=O)N2CCN(C(=O)/C=C/c3ccco3)CC2)cc1 | -20%
110 | COc1cccc(C2C=C(c3ccc(Br)s3)Nc3ncnn32)c1OC (configuration not stated) | -11%
111 | O=C1CC(N2CCC(c3nc4ccccc4s3)CC2)C(=O)N1 (configuration not stated) | -8%
112 | Cc1ccc(C(=O)NC(=S)NCC2CCCO2)cc1 (configuration not stated) | -4%
113 | COc1cc(N/C=C(\C(C)=O)c2ccccc2)cc(OC)c1 | -27%
114 | CCOC(=O)C(Sc1nn(C)c(=S)s1)C(C)=O (configuration not stated) | -23%
115 | CCCn1nnc(NC(=O)c2cccc(OCC)c2)n1 | 0%
116 | CCOC(=O)Cc1c(C)nc2cc(-c3ccc(C)cc3)[nH]n2c1=O | u
117 | CCOC(=O)N1CCN(C(=O)CCN2C(=O)COc3ccccc32)CC1 | -5%
118 | COc1ccccc1-c1noc(-c2cccs2)n1 | -30%
119 | NC(=S)N/N=C\c1ccc(-c2cccc(Cl)c2Cl)o1 | u
120 | COc1ccc(CC(=O)OCC(=O)c2ccc(OC)cc2)cc1 | -12%

A different layout for four compounds above:
[112] Cc1ccc(C(=O)NC(=S)NCC2CCCO2)cc1 (configuration not stated)
  HPGD block: -4%

[113] COc1cc(N/C=C(\C(C)=O)c2ccccc2)cc(OC)c1
  HPGD block: -27%

[114] CCOC(=O)C(Sc1nn(C)c(=S)s1)C(C)=O (configuration not stated)
  HPGD block: -23%

[115] CCCn1nnc(NC(=O)c2cccc(OCC)c2)n1
  HPGD block: 0%

Additional results follow:
No. | Molecule | HPGD block
121 | O=C(OCC(=O)N1CCN(C(=O)c2ccco2)CC1)c1cc(-c2ccco2)nc2ccccc12 | u
122 | CN1CCc2cc(NC(=O)Nc3cccnc3)ccc21 | 4%
123 | COc1ccc(O[C@H]2C=C[C@@H](c3ccccc3)O[C@@H]2COC(=O)CC/C(C)=N/O[C@@H](C)CN2CCCCc3nc(C)c(C)cc32)cc1 | -17%
124 | C=CCn1c(SCC(=O)Nc2ccc3c(c2)OCO3)nnc1-c1ccccc1 | -13%
125 | Cc1c(CCOC(=O)C23CC4CC(CC(C)(C4)C2)C3)sc[n+]1Cc1ccccc1 | -8%
126 | O=C(/C=C/c1ccc(-c2ccccc2[N+](=O)[O-])o1)c1ccc(Br)cc1 | -23%
127 | CCOC(=O)c1c(NC(=O)CSc2nnnn2-c2ccc(OC)cc2)sc(C)c1C | 2.8µM*
128 | CCCc1cc(N2CCCC2)n2nc(C)c(-c3ccccc3)c2n1 | u
129 | CCN(CC)C(=O)COC(=O)c1ccc(O)cc1 | 6%
130 | Clc1ccccc1CSc1nnc(-c2ccccn2)n1Cc1ccco1 | -16%
131 | Cc1noc(C)c1C(=O)OCC(=O)Nc1cc(Cl)ccc1Oc1ccccc1 | -21%
132 | N#Cc1nc(-c2ccco2)oc1NCCCn1ccnc1 | u
133 | S=c1nn[nH]n1C12CC3CC(CC(C3)C1)C2 | u
134 | Cc1cc(C)c(NC(=O)C[C@H](CC(=O)O)c2cccc3ccccc23)c(C(=O)N2CCC3(CCCC3)CC2)c1 | 10%
